# MenB inh: M. tuberculosis MenB inhibitors, primary screen, biochemical, absorbance | 1,4-dihydroxy-2-naphthoyl-CoA synthase (Mycobacterium tuberculosis (strain ATCC 25618 / … | 100,000 compounds, 0.43% hits | MenB enzyme assay, absorbance read-out; some hits fall short of the stated cut | inhibition, %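 (about 12 µg/mL by stock and volumes)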;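 active = mean of two replicates above 30%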;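 note: 0% = no compound and 100% = wells with inactive enzyme; the first replicate is given; strong numbers were not always called active; inactives centre near -10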
# Target sequence (P9WNP5 whole entry, looked up): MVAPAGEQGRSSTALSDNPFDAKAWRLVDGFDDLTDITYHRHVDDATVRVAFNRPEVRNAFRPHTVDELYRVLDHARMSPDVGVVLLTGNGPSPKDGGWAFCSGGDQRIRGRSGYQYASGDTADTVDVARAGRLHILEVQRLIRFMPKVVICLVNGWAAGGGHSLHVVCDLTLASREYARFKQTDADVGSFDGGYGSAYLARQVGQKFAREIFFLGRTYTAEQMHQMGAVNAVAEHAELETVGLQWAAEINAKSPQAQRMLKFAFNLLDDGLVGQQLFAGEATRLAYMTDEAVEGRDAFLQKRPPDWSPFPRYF
# PV pol inh: poliovirus RdRp elongation inhibitors, primary screen, biochemical, fluorescence polarization, total intensity; poliovirus polymerase elongation; stronger effect = lower value; % elongation, % (compound at 16.7 µg/mL); 150,000 compounds, 0.66% hits; in the data active = % elongation below about 90%; note: some results filed as inactive read as strong as hits
# Mtb MbtI inh: MbtI salicylate synthase inhibitors, primary screen, biochemical, fluorescence intensity | P9WFX0 | purified MbtI enzyme, fluorescence intensity read-out | inhibition, %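 (about 17 µg/mL by stock and volumes)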 | 100,000 compounds, 0.89% hits;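 active = above 50% in both replicates, above 80% if mildly self-fluorescent; inactive = the rest, strongly fluorescent compounds included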;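 note: 0% = mean of negative and 100% = mean of positive controls; one replicate is shown; some compounds called inactive have numbers as strong as hits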
# Target sequence (P9WFX0 whole entry, looked up): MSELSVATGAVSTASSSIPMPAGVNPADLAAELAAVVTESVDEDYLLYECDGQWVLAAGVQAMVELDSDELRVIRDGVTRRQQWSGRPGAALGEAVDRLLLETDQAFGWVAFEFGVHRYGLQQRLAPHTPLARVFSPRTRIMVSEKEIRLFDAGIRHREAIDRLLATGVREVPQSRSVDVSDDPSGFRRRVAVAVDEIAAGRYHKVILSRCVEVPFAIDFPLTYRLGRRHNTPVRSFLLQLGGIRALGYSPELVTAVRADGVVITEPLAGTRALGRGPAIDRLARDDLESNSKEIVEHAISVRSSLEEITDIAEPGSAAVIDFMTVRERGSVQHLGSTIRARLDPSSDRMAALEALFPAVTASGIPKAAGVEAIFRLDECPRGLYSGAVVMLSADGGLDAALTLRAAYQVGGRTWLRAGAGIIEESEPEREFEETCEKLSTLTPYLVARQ
# PV pol inh intensity: recorded beside PV pol inh, whose call it bears; % elongation; measured here: total intensity read-out; formula for this scale not given here;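 total fluorescence in place of polarization; lower means less elongation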
# Starred values were filed as active, the others as inactive; · = not tested or not shown; & = joins results of further samples.
# Start of the data: the first 15 entries as a preview:
SMILES,MenB inh,PV pol inh,PV pol inh intensity,Mtb MbtI inh
COC(=O)c1sc(OC)c(C(F)(F)F)c1O,2,102,107,·
Cc1cc2oc(=O)cc(C)c2c(=O)[nH]1,-6,106,109,-90
c1ccc2c(c1)CCCC2Nc1ncnc2c1nc1n2CCCCC1 (stereo unspecified),2,101,103,-16
O=C(/C=C/c1ccco1)OCC(=O)c1cc2c3c(c1)CC(=O)N3CCC2,6,105,109,23
NC(=O)c1ccsc1NC(=O)CSc1ncnc2sc3c(c12)CCCC3,-10,110,111,-1
Cc1cc(C)cc(OCC(=O)N2CCCC2)c1,-8,107,100,·
O=c1[nH]c(=O)c2nc3cc(C(F)(F)F)ccc3nc2[nH]1,-10,85,120,2
CCN(CC)S(=O)(=O)c1ccc(NCC(=O)Nc2ccc(S(=O)(=O)N(C)C)cc2)cc1,-1,103,113,-10
O=C(Nc1ccc(Cl)cc1)Nc1ccc(N2CCN(c3ncccc3C(F)(F)F)CC2)nc1,0,101,108,45
O=S(=O)(/C=C/c1ccccc1)NCc1ccco1,·,102,101,-9
CN1C(=O)/C(=N\N=c2\sc3ccccc3n2C)c2ccccc21,5,89,123,13
CC(C(=O)Nc1ccc(C#N)cc1)N1CCN(S(=O)(=O)/C=C/c2ccccc2)CC1 (stereo unspecified),-27,101,102,10
Cc1ccc(N=Cc2ccco2)c(C)c1,-19,104,109,1
CCC1C[N+]2(C)CCc3cc(OC)c(OC)cc3C2CC1=O (stereo unspecified),-7,106,112,·
COC(=O)c1ccc(COc2ccccc2/C=N/O)o1,19,100,99,6

# The whole of this part, from the start:
SMILES,MenB inh,PV pol inh,PV pol inh intensity,Mtb MbtI inh
COC(=O)c1sc(OC)c(C(F)(F)F)c1O,2,102,107,·
Cc1cc2oc(=O)cc(C)c2c(=O)[nH]1,-6,106,109,-90
c1ccc2c(c1)CCCC2Nc1ncnc2c1nc1n2CCCCC1 (stereo unspecified),2,101,103,-16
O=C(/C=C/c1ccco1)OCC(=O)c1cc2c3c(c1)CC(=O)N3CCC2,6,105,109,23
NC(=O)c1ccsc1NC(=O)CSc1ncnc2sc3c(c12)CCCC3,-10,110,111,-1
Cc1cc(C)cc(OCC(=O)N2CCCC2)c1,-8,107,100,·
O=c1[nH]c(=O)c2nc3cc(C(F)(F)F)ccc3nc2[nH]1,-10,85,120,2
CCN(CC)S(=O)(=O)c1ccc(NCC(=O)Nc2ccc(S(=O)(=O)N(C)C)cc2)cc1,-1,103,113,-10
O=C(Nc1ccc(Cl)cc1)Nc1ccc(N2CCN(c3ncccc3C(F)(F)F)CC2)nc1,0,101,108,45
O=S(=O)(/C=C/c1ccccc1)NCc1ccco1,·,102,101,-9
CN1C(=O)/C(=N\N=c2\sc3ccccc3n2C)c2ccccc21,5,89,123,13
CC(C(=O)Nc1ccc(C#N)cc1)N1CCN(S(=O)(=O)/C=C/c2ccccc2)CC1 (stereo unspecified),-27,101,102,10
Cc1ccc(N=Cc2ccco2)c(C)c1,-19,104,109,1
CCC1C[N+]2(C)CCc3cc(OC)c(OC)cc3C2CC1=O (stereo unspecified),-7,106,112,·
COC(=O)c1ccc(COc2ccccc2/C=N/O)o1,19,100,99,6
COc1cc(SC)ccc1C(=O)OCC(=O)N(C1CCCCC1)C1CCS(=O)(=O)C1 (stereo unspecified),-33,103,110,-3
CC(C)NC(=S)NCc1cnn(C)c1,-1,98,101,-12
Cc1c(/C=N/NC(=O)COc2ccc(-c3ccccc3)cc2)cc(C#N)n1C,-31,98,99,6
Cc1cc(C)cc(CC(C(=O)O)C(C)C(=O)NCc2ccccc2)c1 (stereo unspecified),-20,105,110,3
c1ccc(CN2CCN(c3ncnc4c3cnn4-c3ccccc3)CC2)cc1,5,103&101,103&103,3
Cc1ccnc(NC(=O)c2cc(-c3ccc(C)c(C)c3)n[nH]2)c1,-24,102,102,-2
O=c1[nH]cnc2ccccc12,7,104,100,-8
CN1CCCCC1CCN1c2ccccc2Sc2ccc(S(C)=O)cc21 (stereo unspecified),3,100,101,-6
C=CCNC(=S)/N=c1\sccn1C,-11,104,99,3
COc1cccc(/C=C2\C(=O)NC(=O)N(c3cccc(OC)c3)C2=O)c1,-30,100,100,30
CNC(=O)COC(=O)c1cccnc1Nc1ccccc1F,-7,106,101,-10
OC(c1ccccc1)(c1ccccc1)C1CCN(C(=S)Nc2ccccc2)CC1,-38,99,101,-65
O=C(O)COc1ccc(CN2CCCC2)cc1,-15,104,101,-4
COc1ccc(CN2CCCCC2CO)cc1Br (stereo unspecified),-19,100,98,-16
O=C(OCCCn1c(=O)[nH]c2ccccc21)c1ccc2c(c1)C(=O)N(Cc1ccco1)C2=O,-11,101,105,2
Nc1n[nH]c(-c2ccc(Br)cc2)n1,-29,99,98,-4
N#CS/C=C/C(=O)c1ccccc1,-51,96,95,100*
CCN(CC)c1ccc(C=C2C(=O)OC3(CCCC3)OC2=O)cc1,-96,110,108,72*
COc1cccc(NS(=O)(=O)c2csc(C(N)=O)c2)c1,-2,102,102,-25
COC(=O)c1c(-c2ccccc2)nn(-c2ccc(Cl)cc2)c1OC,·,104,104,-3
O=c1oc2ccccc2n1CCc1nc(-c2ccc(C(F)(F)F)cc2)no1,-9,103,107,0
Clc1ccccc1CSc1nnc(COc2ccccc2)n1Cc1ccco1,-28,103,107,10
N#Cc1c(N)nc2c(c1-c1ccccc1Cl)CCC2,-14,99,103,-381
O=C(CN1CCc2ccccc2C1)NCCCc1ccccc1,9,105,110,19
CCNc1c(NS(=O)(=O)CC)c(=O)oc2ccccc12,10,103,99,8
Cc1cccc(-c2nnc(SCC(N)=O)n2C2CCCCC2C)c1 (stereo unspecified),8,103,104,-2
COc1cccc(N2CCN(C(=O)c3cnc(N4CCCC4)nc3)CC2)c1,-22,101,107,-26
Cc1ccccc1Nc1nc(N)nc(CSc2nc3ncc(Cl)cc3[nH]2)n1,-11,106,117,-5
CCOC(=O)c1[nH]c(C)c(C(=O)OCC(=O)N2CCC(c3ccccc3)=N2)c1C,14,105,96,1
CC(C)(C)c1cn(-c2ccc(Cl)cc2)c(=S)[nH]1,-15,102,102,11
COc1nonc1-n1nnc(C(=O)c2ccccc2)c1C,-16,110,106,·
O=C(NCCN1CCOCC1)c1cnn2c(C(F)F)cc(-c3ccccc3)nc12,-38,103,102,4
COc1cccc(Oc2ccc(OC)cc2C(=O)NN)c1,-1,108,113,-14
CCN1CCN(C(=O)c2ccc(CNS(=O)(=O)c3cccc(OC)c3)cc2)CC1,7,103,100,1
COc1ccc(NC(=O)CCCn2c(=O)c3sccc3n(Cc3ccccc3)c2=O)cc1,-9,101,104,0
Fc1ccc(Nc2cccc3nonc23)cc1,-48,105,115,17
O=C(NC(=O)c1ccccc1Cl)c1ccccc1O,-17,97,100,-23
CCn1c(=O)c(C(=O)CN(C)Cc2ccc(F)cc2)c(N)n(Cc2ccccc2)c1=O,-10,105,106,-13
CCOC(=O)c1ccc(Cl)c(NC(=S)N(C)C)c1,-12,108,107,-4
CN(Cc1ccco1)C(=O)c1cc2c(s1)-c1ccccc1OC2,-12,102,103,80
CC1CCN(C(=O)c2cccc(N3C(=O)C4C5C=CC(C5)C4C3=O)c2)CC1 (stereo unspecified),6,100,102,-3
CCCCN1CN=C(Nc2nc(C)c3ccccc3n2)NC1,-8,103,101,-1
Cc1ccc(-n2nnc(C(N)=O)c2N)cc1,-21,102,101,-5
COc1ccc(CNC(=O)c2ccc(N3CC4CC(C3)c3cccc(=O)n3C4)c(N)c2)cc1 (stereo unspecified),-13,99,104,-6
CCOC(=O)c1c(NC(=O)N2CCOc3ccc(Cl)cc32)sc2c1CCCC2,-4,103,101,21
# Other entries follow.
SMILES,MenB inh,PV pol inh,PV pol inh intensity,Mtb MbtI inh
CS(=O)(=O)N(CC(N)=O)Cc1ccc(F)cc1,-12,100,101,-15
O=C1CS/C(=N\NC(=S)NCc2ccco2)N1,-20,97,109,8
CC(C)(C)C(=O)COC(=O)[C@@H]1CC(O)CN1S(=O)(=O)c1ccc(F)cc1 (stereo partly specified),-3,100,104,-3
COc1ccc(C(=O)c2c(C)oc3ccc(OC)cc23)cc1,-21,100,102,-3
Nc1nc2[nH]c(=O)[nH]c(=O)c2s1,-63,100,97,14
CN(C(=O)CSc1nnc(-c2ccccc2)o1)c1ccccc1,-22,103,98,10
CCc1ccccc1N/C=C1/CCCCC1=O,-39,103,104,-13
COc1ccc(-c2nc(CSCC(=O)NCc3ccc4c(c3)OCO4)c(C)o2)cc1,-9,101,103,3
COc1ccc(-c2ccc(Cc3cn4ccsc4n3)o2)cc1OC,-3,103,97,-34
CNc1cccc2cccc(OC)c12,·,98,102,93
COc1ccccc1OCCN1CCN(c2ccccc2)CC1,-14,98,106,·
O=C(Oc1cccc2cccnc12)c1ccccc1,19,103,102,4
CN1CCN(C(=O)C2CCCN(S(=O)(=O)N3CCCCC3)C2)CC1 (stereo unspecified),14,101,96,0
c1nc(N2CCN3CCCC3C2)c2[nH]cnc2n1 (stereo unspecified),-15,105,105,-4
CC1(C(=O)Nc2nc3ccccc3s2)CCCC1,·,101,96,-7
Cc1cccc(CN2C(=O)/C(=C\c3ccc(C(=O)N4CCN(C)CC4)cc3)Oc3ccccc32)c1,-22,103,104,69
CC1CCC2(CC1)NC(=O)N(NC(=O)CN1CCN(Cc3nc4ccccc4s3)CC1)C2=O (stereo unspecified),-30,103,105,3
CCN(CC)CCn1c(NC(=O)c2cc3c(s2)CCCC3)nc2ccccc21,-11,100,101,15
CN(C)C(=O)Oc1nnc(SCCS(=O)(=O)c2ccc(F)cc2)n1-c1ccccc1,-5,106,109,-6
CC1(C)CC(NC(=O)/C=C/c2ccccc2)CC(C)(C)N1,-7,104,102,3
COc1cccc(NC(=O)NCCc2nnc(SC)n2C)c1,-25,103,100,-4
Cc1ccc(CN(C)C(=O)Cc2csc(-c3ccccc3)n2)o1,-19,110,104,75
OC1CCNC(=S)N1c1ccccc1 (stereo unspecified),-32,105,102,-8
CC(=O)NC1C(OC2CCCCC2)OC(CO)C(O)C1O (stereo unspecified),0,101,101,-5
Cc1nc(SCC(=O)NC(N)=O)c2c(-c3cccs3)csc2n1,-15,107,115,-11
COc1ccc(OC)c(C2=NOC(C(=O)N3CCCc4ccccc43)C2)c1 (stereo unspecified),-20,102,104,-15
CCc1cccc(C)c1NC(=O)N(C)C1CCCCC1,11,100,100,17
O=C(CSc1ccc(-c2ccc(F)cc2)nn1)N1CCOCC1,-36,102,103,2
O=C(Cn1ccc(=O)[nH]c1=O)NCc1ccc(Cl)cc1,7,112,107,9
Cn1c(C(=O)NCCCN2CCCCC2)cc2sccc21,6,100,103,10
Cc1cc(-c2nc3ncccc3o2)ccc1NC(=O)C(C)(C)Oc1ccc(Cl)cc1,-33,100,107,92
Cc1n[nH]c(=O)nc1NCCN(C)C,-3,106,102,·
CCOC(=O)C1=C(CS(=O)(=O)c2ccccc2)NC(=O)NC1c1ccc(SC)cc1 (stereo unspecified),-6,101,98,15
CC(C)C(=O)N(C)Cc1cc2ccccc2[nH]c1=O,8,101,101,85
O=C(O)CCC(=O)c1ccc(Cl)s1,·,100,104,7
Cc1[nH]c(=O)c(C#N)c(C)c1CCC(=O)N(C)CC(=O)Nc1ccc(Cl)c(Cl)c1,-16,101,105,-8
O=C(O)CCN1CCCC1,8,100,103,-6
CCC(=O)N1CCc2cc(S(=O)(=O)NCCC(=O)Nc3ccc(Br)cc3C)ccc21,-11,102,107,-7
COC(=O)c1sccc1NC(=O)/C=C/c1cccs1,-9,104,108,4
COC(=O)c1nc2c(C)cccn2c1F,-2,101,99,41
CCN(CC)C(=O)NCc1ccccn1,-1,99,104,-29
COc1ccc(-c2nnc(NC(=O)CC(C)C)s2)cc1,-2,101,104,·
CCN(C(=O)/C=C/c1ccccc1)c1ccccc1,-70,99,102,6
Cc1ccccc1Nc1nc(N)nc(CSCc2c(C)noc2C)n1,-30,105,106,-15
CC(C)(C)C(=O)CSc1nc2ccccc2c(=O)n1-c1ccc(F)cc1F,·,103,99,-2
CCCC/C(O)=C1/C(=O)CC(C)(C)CC1=Nc1ccccc1OC,·,98,108,-4
C1=CCC(C2OCC(CN3CCOCC3)O2)CC1 (stereo unspecified),2,102,101,-4
CC1(C)COC(CC(=O)c2cccs2)=N1,16,·,·,20
O=S(=O)(NCC1CCN(S(=O)(=O)c2ccccc2)CC1)c1cccc2nonc12,-7,109,125,-1
COc1ccc(-c2nn[nH]n2)cc1,39*,103,101,1
CCn1c(CCNC(=O)C2(c3ccc(Cl)cc3)CCC2)nnc1SC,-3,98,101,1
COc1ccc(Sc2ccc(OC)cc2C(=O)O)c(C(=O)O)c1,-5,103,102,1
Clc1cc(NCc2ccc3c(c2)OCO3)ccc1N1CCOCC1,6,104,103,·
CC(C)N(CCC#N)C(=O)c1c[nH]c2ccccc2c1=O,3,104,99,·
Cc1cc(=O)oc2cc(OC(C)C(=O)NCC3CCCO3)ccc12 (stereo unspecified),-5,101,102,-13
Cc1nn(-c2ccccc2)c(C)c1Sc1ccccc1N,·,102,98,3
CCC[C@@H]1C[C@@H](C(=O)N[C@@H](C2O[C@H](SC)[C@H](O)[C@@H](O)[C@H]2O)[C@H](C)Cl)N(C)C1 (stereo partly specified),3,101,102,-7
CCOc1ccc(NC(=O)OC(C)(C)C)cc1,0,103,100,-19

# High-throughput results deposited in PubChem BioAssay by ICCB-Longwood Screening Facility, Harvard Medical School.
